Compound activity as filed in PubChem BioAssay.
Vaccinia Venus: vaccinia inhibition (Venus reporter). Vaccinia virus Venus reporter expression, fluorescence. Potency, µM (highest dose often 36.5 µM), for the others: at the top dose activity change, negative = inhibition, usual class: inhibitors. 0.46% of 330,000 active. AID 720580; active means well fitted inhibition curve with a large enough effect; inconclusive means small, poorly fitted or top-dose-only effect; inactive means no such curve, though single readings can be large or run the other way; tested in A549 cells; further: nearly all actives have a fitted effect of over 30% in size; inactives centre near -10
Vaccinia mCherry: vaccinia inhibition (mCherry reporter) | Vaccinia virus mCherry reporter infection, fluorescence; about a quarter of the inactives have no number | Potency, µM (titrated, usually from 36.5 µM), for the others: top-dose activity change, negative = inhibition, usual class: inhibitors | 0.63% of 310,000 active | AID 720579; active = well fitted inhibition curve with a large enough effect; inconclusive = small, poorly fitted or top-dose-only effect; inactive = no such curve, though single readings can be large or run the other way; tested in A549 cells; further: nearly all actives have a fitted effect of over 35% in size; inactives centre near -10
* = called active by the depositor; i = inactive; ? = inconclusive; nt = not tested or not shown; [ ] = dose if it differs, or a comment. On the % scale 0 is the no-effect control and ±100 the full control effect; potency means the concentration at half of the fitted maximal effect.

SMILES	Vaccinia Venus	Vaccinia mCherry
Cc1nc(-c2ccc(Cl)cc2)sc1C1(C)CC(c2cccc(Cl)c2)=NO1 (centres undefined)	3%	i
N#Cc1cc2c(nc1SCc1ccccc1)CCCC2=O	-11%	i
Cc1cccc(C2c3[nH]c4ccccc4c3CCN2C(=O)c2cn(C)c3ccccc3c2=O)n1 (centres undefined)	0%	0%
COc1ccccc1CNC(=O)C(c1ccccc1)c1ccccc1	-6%	-1%
N#Cc1c(-c2ccccc2)nc(SCC(=O)NC2CCCCC2)[nH]c1=O	-1%	-6%
CN(C(=O)C1CCCO1)c1nnc(-c2ccncc2)s1 (centres undefined)	-17%	-14%
Cc1c(Nc2cc(Cl)c3nonc3c2[N+](=O)[O-])c(=O)n(-c2ccccc2)n1C	28µM*	?
COc1cc(OC)cc(-c2c(C#Cc3ccsc3)c3cc(-c4ccc(OC)cc4F)ccc3n2C)c1	-18%	i
CCOc1ncccc1C(=O)OCc1ccc(C#N)cc1	-4%	-8%
CCCc1cc(=O)oc2cc(OCc3cccc(OC)c3)c(Cl)cc12	-7%	i
Cc1cc(S(=O)(=O)Nc2ccc(C(=O)NCCCN3CCOCC3)cc2)ccc1F	-18%	-18%
CCOC(=O)N=S(N)(=O)c1ccc(Cl)cc1 (centres undefined)	-7%	-15%
Cc1ccc(S(=O)(=O)N2[C@@H](c3cccc(Cl)c3)C(C(=O)OC(C)(C)C)=CC[C@H]2c2cccc(Cl)c2)cc1	-1%	7%
NC(=O)COC(=O)c1ccc(S(=O)(=O)N2CCCCCC2)cc1	-17%	nt
O=C(CNC(=O)C1(c2ccccc2)CC1)Nc1ccc(F)c(F)c1	-18%	-30%

Ordered by length of the SMILES (rising): 5 of the compounds above
SMILES	Vaccinia Venus	Vaccinia mCherry
CCOc1ncccc1C(=O)OCc1ccc(C#N)cc1	-4%	-8%
CN(C(=O)C1CCCO1)c1nnc(-c2ccncc2)s1 (centres undefined)	-17%	-14%
COc1ccccc1CNC(=O)C(c1ccccc1)c1ccccc1	-6%	-1%
NC(=O)COC(=O)c1ccc(S(=O)(=O)N2CCCCCC2)cc1	-17%	nt
N#Cc1c(-c2ccccc2)nc(SCC(=O)NC2CCCCC2)[nH]c1=O	-1%	-6%

Following part:
SMILES	Vaccinia Venus	Vaccinia mCherry
COc1ccc(CNC(=O)Nc2cccc(C)c2)cc1	-14%	-16%
CC1(C)Cc2nc3oc4c(=O)n(CC(=O)Nc5ccc(Cl)cc5)cnc4c3cc2CO1	1%[7.34 µM]	i[7.34 µM]
CN(C)c1nc(-c2ccccc2)ns1	4%[7.34 µM]	-1%[7.34 µM]
COc1cccc(CC2(CO)CCCN(Cc3ccc(C)s3)C2)c1 (centres undefined)	-10%	-24%
COc1ccc(NC(=S)NC(=O)c2ccc3c(c2)OCCO3)cc1	-19%	-4%
N#Cc1ccccc1COC(=O)c1cccc(S(=O)(=O)N2CCCC2)c1	-16%	-3%
O=C(Nc1nnc(-c2ccco2)s1)C1CCCCC1	-15%	nt
C=CCOc1ccc(/C=C2\SC(=S)N(NS(=O)(=O)c3ccccc3)C2=O)cc1	11%	4%
Cn1cccc1Cc1nnc(SCC(=O)NCc2ccc(F)cc2)n1-c1ccc(F)cc1	-16%	-23%
C[N+](C)(C)CC=O	-14%	-2%
Cc1cc(NC(=O)CCC(=O)N(CC(=O)NC2CCCC2)c2ccc(C)c(F)c2)no1	0%	i
CCN(CC)CCCNC(=O)CC1Oc2ccc(C)cc2NC1=O (centres undefined)	-11%	-23%
CCOc1ccccc1C1C(C(=O)Nc2ccccc2OC)=C(C)Nc2nc(CCCO)nn21 (centres undefined)	-8%	i
CC(C)(C)OC(=O)N[C@@H](Cc1ccccc1)[C@H](O)c1ccco1	-1%	-1%
CC(C(=O)NCc1ccc2c(c1)OCO2)c1ccc([N+](=O)[O-])cc1 (centres undefined)	-4%	-23%
O=C(COc1ccc(S(=O)(=O)NC2CCCC2)cc1)NCC1CCCO1 (centres undefined)	-16%	-3%
Fc1ccccc1-c1csc(=Nc2cccnc2)n1CC1CCCO1 (centres undefined)	-12%	-11%
Cc1ccc(CN(C(=O)COc2ccc(Br)cc2)c2ccccn2)o1	-4%	-21%
COc1ccc(S(=O)(=O)N/N=C\c2ccc3c(c2)OCO3)cc1	-3%	-12%
COc1cc([N+](=O)[O-])ccc1NC(=O)Nc1ccc(C(=O)N2CCCC2)cc1	-7%	i
CCc1ccc(CNC(=O)c2cnc3sc(N4CCOCC4)nn3c2=O)cc1	-5%	-10%
NC1=C(Cl)C(=O)c2ccc(S(N)(=O)=O)cc2C1=O	0.5µM*	?
Cn1c(N)c(C(=O)COC(=O)COc2ccc3ccccc3c2)c(=O)n(C)c1=O	-3%	1%
CC(C)NC(=O)C1CCCN(c2ncnc3onc(-c4ccc(F)cc4)c23)C1 (centres undefined)	-12%	-10%
Cc1cc(Br)cn2c(Cc3ccccc3C(F)(F)F)c(-c3ccc(Cl)cc3)nc12	2%	-9%
COc1ccc(CNCCSc2nnnn2-c2ccccc2)cc1	-12%	-8%
Cc1ccc(OCC(=O)Nc2cccc(S(=O)(=O)N3CCCCC3)c2)c([N+](=O)[O-])n1	-24%	-12%
Clc1ccc(-c2ccnc(Oc3ccc4ccccc4c3)n2)cc1	-19%	nt
COc1ccc(S(=O)(=O)c2c(Nc3cccc(Cl)c3)sc(C(=O)c3ccccc3)c2N)cc1	-17%	-16%
CCCC(=O)Nc1c(C(=O)OCC)oc2ccccc12	-11%	-1%
O=c1[nH][nH]c(C(F)(F)F)c1C=Nc1ccccc1Cl	-10%	-18%
Cc1cc(S(=O)(=O)N2CCN(CC(=O)NC(C)(C#N)C3CC3)CC2)ccc1Br (centres undefined)	2%	i
O=S(=O)(Nc1ccc(Cc2ccncc2)cc1)c1ccc(Br)cc1	?	-25%
C=CCC1(CC=C)CCCN1C(=O)c1cc(COc2ccc(F)c(F)c2)on1	-3%[7.34 µM]	-11%[7.34 µM]
Cc1cccc(OCCCCn2c(C3CC(=O)N(c4ccc(C)cc4C)C3)nc3ccccc32)c1 (centres undefined)	-23%	-21%
Cc1ccccc1NC(=O)c1cc2c(-c3ccccc3)nn(-c3ccccc3)c2s1	-3%	-11%
COc1cc2c(cc1OC)CN(S(=O)(=O)c1cccs1)CC2	-6%	-12%
N/N=C(\c1ccccc1)C12CN3CN(CN(C3)C1)C2	-11%	-4%
Cc1cc2cc(C(c3nnnn3Cc3ccco3)N3CCc4ccccc4C3)c(=O)[nH]c2cc1C (centres undefined)	?	i[1.46 µM]
CCOC(=O)C1(Cc2cccc(OC)c2)CCN(Cc2cccc(OC)c2OC)CC1	-1%	-22%
FC(F)(F)c1nc2ccccc2c2nc3ccccc3n12	6%	i
Cc1ccc(-n2nc(-c3ccco3)cc2C(=O)O)cc1	-1%	-12%
Cc1cc(=O)n2c3ccccc3n(CC(O)CN3CCOCC3)c2c1C#N (centres undefined)	-9%	-8%
O=C(c1cnn(-c2nccc(-c3ccccc3C(F)(F)F)n2)c1C1CC1)N1CCN(CCO)CC1	3%	-8%
Cc1[nH]c2ccccc2c1/C=N/NC(=O)Cc1cccs1	-24%	-14%

Remaining list, next part:
mol	Vaccinia Venus	Vaccinia mCherry
O=C(C[C@@H]1C/C=C/CC[C@@H](Cc2ccc(F)cc2)C(=O)OC[C@H](Cc2ccccc2)NC1=O)N[C@H](CO)Cc1ccccc1	-28%	i
COc1cc(-c2noc(CSc3nc(-c4ccc(F)cc4)cc(=O)[nH]3)n2)cc(OC)c1OC	-4%	-14%
CC1Cc2ccccc2N1C(=O)CSc1nn2c(=O)c(C(C)(C)C)nnc2s1 (centres undefined)	0%	-21%
Oc1c(C(c2ccc(F)cc2)N2CCc3ccccc3C2)sc2ncnn12 (centres undefined)	3%	7%
CCOc1ccc(CCNC(=O)C2CCN(S(=O)(=O)CC)CC2)cc1OCC	-2%	-13%
COc1ccc(-c2c(C)c3ccc(O)c(CN4CCCC4)c3oc2=O)cc1OC	-3%	-9%
Cc1cccc(NC(=O)COc2coc(CN3CCc4ccccc4C3)cc2=O)c1	-17%	-15%
O=C(COc1ccc(S(=O)(=O)N2CCCC2)cc1)N1CCCCC1	0%	-6%
O=C(NCCCCc1ccccc1)c1nn(-c2ccccc2F)nc1CO	-6%	-7%
O=S(=O)(c1cccs1)N1CCC(CO)(Cc2ccc(Cl)cc2)CC1	-14%	?
COc1cccc(NC(=O)c2cc3c(-c4ccc(Cl)cc4)nn(C)c3s2)c1	-15%	-24%
CC(C)NC(=O)Cn1c(SCC(=O)c2ccc(F)cc2)nc2ccccc21	-7%	-13%
Cc1cc(C)c(N(C(=O)Cn2nnc3ccccc32)C(C(=O)NC(C)(C)C)c2ccsc2)c(C)c1 (centres undefined)	-20%	?
CC(OC(=O)CN1C(=O)c2ccccc2C1=O)C(=O)NC1CCCCC1 (centres undefined)	-12%	i
O=C(O)c1cc(S(=O)(=O)N2CCCCC2)sc1Cl	-6%	-4%
O=C1/C(=C/c2ccncc2)SC(=S)N1Nc1ccccc1	65%[activator]	0%
CC(=O)Nc1ccc(Nc2ccc3cc(S(=O)(=O)N4CCCCC4)ccc3n2)cc1	-9%	-15%
CC(=O)Nc1ccccc1/C=C/c1ccc2c(C)ccc(O)c2n1	-24%	-8%
O=C(O)c1ccc2cccnc2c1O	-11%	1%
CCOC(=O)C1CCN(C(=O)CNC(=O)c2nn(-c3ccc(OC)c(OC)c3)c(=O)c3ccccc23)CC1	1%	-9%
CCc1ccccc1Nc1nn2c(=O)c3ccc(C(=O)NCCCOC(C)C)cc3nc2s1	?	?
COc1ccc(NC(=O)CSc2nncn3c2cc2occc23)c(OC)c1	-2%	-9%
CC1(C)CN(S(=O)(=O)OCC(Cl)(Cl)Cl)C(=O)N1	-5%	-29%
c1ccc(-n2cnnc2SCc2cn3cccnc3n2)cc1	-6%	-9%
COc1ccc(OC)c(NC(=O)C(=O)N/N=C(\C)CC(=O)Nc2ccc(Cl)cn2)c1	-8%	?
CCc1cc(=O)oc2cc(OCC(=O)N(CC)CC)c(Cl)cc12	-8%	i
CC(C)CC1(C2CCCC2)NC(=O)NC1=O (centres undefined)	-3%	i
C#CCNC(=O)C1=C[C@@H](c2ccccc2)C[C@@H](OCc2ccc(CO)cc2)O1	-12%	-18%
CCc1ccccc1NC(=O)c1cccn(Cc2ccccc2F)c1=O	20%	6%
Cc1ccc(S(=O)(=O)NN=Cc2c(O)ccc3ccccc23)cc1	-14%	-6%
Cc1c(C)n2c(SCC(=O)NC3CCCC3)nnc2[nH]c1=O	-1%	-18%
Cc1cccc(C)c1-n1nnnc1C(C)(C)N1CCN(N=O)CC1	-10%	i
CC(c1ccccc1)N1C(=O)c2ccc(C(=O)NCc3ccco3)cc2C1=O (centres undefined)	-14%	nt
C/C(=N\O)C(=O)NCc1ccccn1	-5%	nt
COc1ccc(C(=O)CCC(=O)Nc2ccccc2C)cc1	1%	3%
O=C(c1cccs1)N1CCN(c2ccccc2)CC1	-7%	i

Whole records from above. Order of values: Vaccinia Venus	Vaccinia mCherry
COc1ccc(C(=O)CCC(=O)Nc2ccccc2C)cc1 as listed: 1%	3%
CCc1ccccc1NC(=O)c1cccn(Cc2ccccc2F)c1=O as listed: 20%	6%
C/C(=N\O)C(=O)NCc1ccccn1 as listed: -5%	nt
O=C(c1cccs1)N1CCN(c2ccccc2)CC1 as listed: -7%	i
CCc1cc(=O)oc2cc(OCC(=O)N(CC)CC)c(Cl)cc12 as listed: -8%	i

The list goes on:
mol	Vaccinia Venus	Vaccinia mCherry
CCN(c1ccccc1)S(=O)(=O)c1ccc(Cl)c(NC(=O)CN2CCCCCC2)c1	-14%	-18%
Nc1n[nH]c(N)c1N=Nc1cccc(F)c1	0%	-7%
O=C(NN(c1ccccc1)c1ccccc1)c1ccc([N+](=O)[O-])o1	-16%	-15%
Cc1ccc(NC(=O)CSc2nc3ccc(NC(=O)c4cccc(Cl)c4)cc3s2)c(C)c1	-10%	-8%
Cc1cc(-c2ccn[nH]2)c(C)s1	-16%	-4%
CC(=O)N1N=C(c2cccc(NS(C)(=O)=O)c2)CC1c1cccs1 (centres undefined)	-5%	-15%
CC1=C(C(=O)N(C)C)CC(CC(=O)NC2CC2)C(=O)N1Cc1ccccc1 (centres undefined)	-6%	i
Cc1cccc(N2CCN(C(=O)CS(=O)(=O)c3cccc4nsnc34)CC2)c1C	-8%	-22%
COc1ccc(CCNC(=O)c2cc(=O)c3cc(C)c(C)cc3o2)cc1OC	6%	5%
C=C(Cl)COc1ccc2c(C)cc(=O)oc2c1	-10%	-15%
O=C(NCCc1ccc(Cl)cc1)c1c2c(nc3ccccc13)C(=O)N(C1CCCCC1)C2	-19%	i
Cc1cc(NC(=O)COC(=O)[C@H](C)NC(=O)c2ccccc2)no1	-6%	-23%[1.46 µM]
